N370S GC: qHTS Assay for Inhibitors and Activators of N370S glucocerebrosidase as a Potential Chaperone Treatment of Gaucher Disease. Lysosomal acid glucosylceramidase (Homo sapiens), P04062. actives 0.092% (n = 330,000). AID 2101, 2009. Potency, µM (series often up to 59.4 µM), inactives show top-dose activity change, negative = inhibition, actives largely listed as inhibitors. N370S GC spleen homogenate, 4MU-glucoside fluorescence;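 also: 0% = full enzyme activity and -100% = no enzyme basal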
TDP1 inh: qHTS Assay for Inhibitors of Tyrosyl-DNA Phosphodiesterase (TDP1) | AID 485290, 2010 | Potency, µM (series often up to 130 µM), for the others: at the highest dose activity change, negative = inhibition, most hits filed as inhibitors | actives 0.28% (n = 350,000) | recombinant TDP1, AlphaScreen DNA substrate cleavage; also: nearly all actives have a fitted effect of over 40% in size
Target sequence (Q9NUW8 whole entry, looked up): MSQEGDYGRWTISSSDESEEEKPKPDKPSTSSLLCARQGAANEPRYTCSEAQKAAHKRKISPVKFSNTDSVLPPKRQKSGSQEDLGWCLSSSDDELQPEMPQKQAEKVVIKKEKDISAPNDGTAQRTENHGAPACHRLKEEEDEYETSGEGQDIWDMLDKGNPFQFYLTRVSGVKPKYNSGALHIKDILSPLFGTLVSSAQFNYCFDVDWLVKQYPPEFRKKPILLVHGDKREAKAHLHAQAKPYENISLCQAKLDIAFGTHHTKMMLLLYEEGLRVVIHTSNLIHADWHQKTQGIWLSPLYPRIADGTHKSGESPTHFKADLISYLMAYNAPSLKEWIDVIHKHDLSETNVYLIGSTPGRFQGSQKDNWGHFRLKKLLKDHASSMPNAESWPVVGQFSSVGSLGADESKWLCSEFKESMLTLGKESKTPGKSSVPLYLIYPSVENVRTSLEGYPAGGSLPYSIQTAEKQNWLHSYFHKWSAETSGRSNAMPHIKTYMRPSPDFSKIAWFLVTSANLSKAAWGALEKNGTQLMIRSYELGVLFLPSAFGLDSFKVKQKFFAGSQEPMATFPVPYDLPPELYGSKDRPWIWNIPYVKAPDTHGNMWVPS
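Tdp1 1 nM final; 15 min RT w/ cpd; substrate 15 nM, 5 min; beads 10 ug/ml, 10 min; AlphaScreen read. Neg ctrl: no enzyme.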
Numbers without * were called inactive; ? = inconclusive; . = no result given; & = joins results of further samples; [ ] = another dose, or the depositor's remark. Calls follow the shape of the dose curve; as a rule, active = well fitted curve in the direction sought with a large enough effect; inconclusive = small, poorly fitted or top-dose-only effect, or another doubt; inactive = no such curve, though single readings can be large; an effect the other way counts as inactive or inconclusive. Unless noted, % is scaled to controls: 0 for no effect and ±100 for the full control effect; potency is read from the fitted curve at half-maximal effect.

SMILES	N370S GC	TDP1 inh
Cc1csc(SCC(=O)NC2CCCCC2)n1	-1%	2%
Cc1cc([N+](=O)[O-])nn1CC(=O)NCCCn1ccnc1	-2%	0%
COc1ccc(C2NC(=O)c3n[nH]c(C)c32)c(OC)c1 (stereo unspecified)	3%	0%
COc1ccc(CC(=O)N2CCc3ccccc32)cc1	6%	-10%
Cc1ccc(NS(=O)(=O)c2ccc3[nH]c(=O)oc3c2)cc1Cl	.	-5%
CCOC(=O)c1[nH]c(C)c(C(=O)NCCN2CCOCC2)c1C	3%	3%
Nc1ccc2nn(-c3cccc4ccccc34)nc2c1	7%	-1%
Cc1ccc(-c2nc3ccccc3s2)cc1S(=O)(=O)N1CCCC1	17%	-4%
Cc1c(C(=O)N2CCCC2)oc2c1-c1nn(CC(=O)NCCCN3CCCCC3C)cc1CC2 (stereo unspecified)	-7%	6%
CC(C)Nc1nc(N)c(C(=O)C23CC4CC(CC(C4)C2)C3)s1	0%	2%
CCOC(=O)C1=C(C)NC(=O)C(C(N)=O)C12CCCC2 (stereo unspecified)	.	-3%
Cc1cccc(N=C2NC(=O)c3cc([N+](=O)[O-])ccc32)c1	-22%	8%
O=C(NNC(=O)c1ccccc1F)c1ccc(S(=O)(=O)N2CCCCC2)cc1	.	1%
O=C(NCCCc1ccccc1)Nc1cccc(Cl)c1	6%	-4%
Cc1cc(C(=O)COC(=O)CN(C)S(=O)(=O)c2ccc(Cl)cc2)c(C)n1Cc1cccs1	-2%	4%
CC1Oc2ccccc2C=C1/C=N\NC(=O)c1cccnc1 (stereo unspecified)	-4%	6%
COc1ccc([C@@H]2[C@@H]3C(=O)N(C(C)(C)C)C(=O)[C@@H]3[C@]3(Cc4ccccc4)C(=O)N(c4ccc(C)cc4)C(=O)N23)cc1	-6%	0%
S=c1nc(-c2ccccc2Br)[nH][nH]1	1%	6%
COc1ccc(-n2c(SCC(=O)Nc3ccc(C(N)=O)cc3)nc3c([nH]c4ccccc43)c2=O)cc1OC	1%	6%
CC(=O)/C(=C/c1ccccc1)C(=O)Nc1ccccc1C	-6%	3%
Cc1ccc(OCC(=O)N/N=C\c2ccc(O)c([N+](=O)[O-])c2)c([N+](=O)[O-])c1	2%	5%
CC(C)(C)c1n[nH]c(=S)n(/N=C/c2cccs2)c1=O	-2%	2%
CCCCCCOC(=O)/C=C/c1c(C)[nH]c(=O)[nH]c1=O	1%	0%
COC(=O)c1sc(NC(=S)NC(=O)c2cccc(C)c2)nc1C	3%	-3%
O=C(O)CNc1nc(Cl)ccc1[N+](=O)[O-]	17%	1%
CC1(C)CC(=O)C=C(N=CC2=C(O)CC(C)(C)CC2=O)C1	-5%	2%
C=CCN(Cc1nc(-c2ccc(OC)cc2)no1)C(=O)c1ccc2c(c1)OCO2	4%	10%
COC(=O)c1sc(NC(=O)c2ccoc2C)nc1C	-7%	3%
CCOC(=O)c1c(NC(=O)c2ccc(C)cc2)sc2c1CC(C)(C)OC2	?	?
O=C(NCc1ccco1)c1cc(S(=O)(=O)N2CCCc3ccccc32)ccc1Cl	23%	7%
NC(=O)c1cccc2ccccc12	8%	.
Cc1ccc(CNC(=O)CN(c2ccc(Cl)cc2)S(C)(=O)=O)cc1	-3%	.
O=c1c2c([N+](=O)[O-])cc([N+](=O)[O-])cc2nc2ccccn12	3%	.
O=C(Nc1sc2c(c1-c1nc3ccccc3[nH]1)CCCC2)C1CC1	5%	8%
CC(=O)Nc1cccc(NC(=O)C(=O)c2cn(CC(=O)N3CCCCC3)c3ccccc23)c1	-13%	5%
CCN1CCN(c2ccc(S(=O)(=O)N3CCCCC3)cc2NC(=O)c2ccc(C)o2)CC1	-5%	.
O=C(CCC(=O)OCc1ccc([N+](=O)[O-])cc1)Nc1ccccc1Cl	14%	-1%
CC(=O)Nc1ccc2c(c1)nc1n2CCOC1	-2%[12.8 µM]	-5%
CC(NC(=O)c1cc(-c2cccs2)on1)c1ccccc1 (stereo unspecified)	-30%	3%
O=C(C1CC1)N1N=C(c2ccccc2)CC1(O)C(F)(F)F (stereo unspecified)	3%	0%
CSc1ccccc1NC(=O)Nc1cccc(Cl)c1Cl	.	1%
Cc1cccc(CCNC(=O)CCCOc2cc(=O)n(C)c3ccccc23)c1	-12%	0%
O=C(CCCCC(=O)Nc1ccccc1Cl)Nc1ccccc1Cl	-2%	.
Cc1ccc(NC(=O)Cn2cnc3sc(C(=O)NCc4ccco4)c(C)c3c2=O)cc1Cl	5%	0%
O=C(NCc1ccco1)Nc1cccs1	0%	2%
Cc1[nH]c2ccc(C(=O)NCCN3CCOCC3)cc2c1C	-11%	0%
CC(C)[C@H](NC(=O)NCCc1ccccc1)C(=O)O	3%	3%
CC(=O)Nc1ccc(S(=O)(=O)Nc2cccn(Cc3ccc(C)cc3)c2=O)cc1	13%	6%
CC1=C(C#N)C(NC(=O)c2ccc(Cl)cc2)(C(F)(F)F)C(=O)N1 (stereo unspecified)	-1%	0%
CC(C)N1CCN(Cc2ccc3c(c2)Cc2ccccc2-3)CC1CCO (stereo unspecified)	-27%	-2%
CC(C)NC(=O)c1nn(C)c2ccccc12	-6%	-2%
CCn1c(SCC(=O)N2CCOCC2)nnc1-c1cccs1	14%	1%
O=C(CCn1c(=S)[nH]c2ccccc2c1=O)NCCc1ccc(Cl)cc1	-8%	4%
Cn1c(=O)c(C(=O)NCCCc2ccccc2)c(O)c2ccccc21	6%	3%
CC(C)CNC(=O)CSc1nnc(CN2CCCCCC2=O)n1-c1ccccn1	-2%	2%
Cc1c(CCC(=O)NCCC(=O)O)c(=O)oc2cc3occ(-c4ccccc4)c3cc12	-9%	.
O=C(Cc1cccc(C(F)(F)F)c1)Nc1ccccc1	-2%	-4%
CS(=O)(=O)Nc1ccc(C(=O)NCCSCc2ccco2)cc1	-1%	-3%
Cc1cc(-n2c(C)cc(C(=O)CN3C(=O)NC4(CCCCCC4)C3=O)c2C)no1	-14%	8%
Nc1cc(=O)[nH]c(SCC(=O)Nc2cc(Cl)cc(Cl)c2)n1	4%	7%

New compounds follow.
SMILES	N370S GC	TDP1 inh
COc1ccc(CSc2nc(C)cc(C)c2C#N)cc1	8%	.
CC1C(=O)N2CCCc3cc(S(=O)(=O)NCc4ccc(Cl)cc4)cc1c32 (stereo unspecified)	-6%	3%
CCN(Cc1cn2cccnc2n1)C1CCCCC1	-2%	-2%
Cn1c(CN2CCCCC2)nc2cc(NC(=O)c3ccccc3Cl)ccc21	9%	7%&3%
CC(=O)Nc1cc(O)cc(O)c1	-4%	-3%
COc1cccc(NC(=O)c2cc3c(=O)n4ccccc4nc3n(CC(C)C)c2=N)c1	-3%	5%
NC(=O)c1nsc(C(=O)N(Cc2cccnc2)C(C(=O)NCc2ccccc2)c2ccc(O)cc2)c1N (stereo unspecified)	-8%	10%
CC1Cc2ccccc2N1C(=O)COC(=O)c1ccc(S(=O)(=O)N(C)C)cc1 (stereo unspecified)	-21%	2%
COc1ccc(CCNC(=O)c2cc(S(=O)(=O)N(C)C)ccc2N2CCCC2)cc1	-1%	6%
O=C(CN1CCN(C2CCCCC2)CC1)Nc1ccc(Br)cc1	-2%	5%
CC1Cc2ccccc2N1C(=O)NC1CC(=O)N(c2ccc3c(c2)OCCO3)C1 (stereo unspecified)	-2%	2%
NC(=O)C1CC(=O)N(c2ccc(OCc3c(Cl)cccc3Cl)cc2)C1 (stereo unspecified)	13%	6%
COc1ccc(CCN(C)C(=O)c2ccc(S(=O)(=O)Nc3ccccc3C)cc2)cc1OC	-15%	2%
CSC1=NCCN1C(=O)c1cccc(Br)c1	4%	2%
Clc1ccc(SCc2nc3ccccc3[nH]2)cc1	11%	0%
CCOC(=O)C1CCCN(C(=O)c2cn(C)c(=O)c3cc(OC)c(OC)cc23)C1 (stereo unspecified)	6%	9%
O=C(CSc1nnnn1Cc1ccccc1)N1CCN(c2ccccc2)CC1	-2%	6%
Cc1ccc(CNc2nc(C)c(C(=O)N(C)C)s2)cc1	-12%	4%
CS(=O)(=O)N(CC(=O)NC1CCCC1)Cc1ccc(F)cc1	-5%	-3%
C=CCC1c2cccc(C(=O)O)c2C(=O)N1c1ccc(Cl)cc1 (stereo unspecified)	8%	2%
O=C(CCN1C(=O)c2ccccc2S1(=O)=O)N1CCN(c2cccc(Cl)c2)CC1	2%	1%
CCC1CCCCN1C(=O)c1noc(C(C)C)c1[N+](=O)[O-] (stereo unspecified)	-8%	-1%
COc1ccc(CCNC(=O)C2CCN(S(=O)(=O)c3cc(OC)ccc3OC)CC2)cc1	0%	-6%
Cn1cc(S(=O)(=O)N2CCC(Cc3ccccc3)CC2)c(=O)n(C)c1=O	3%	1%
COc1cccc(C2CC(C(F)(F)F)n3ncc(C(=O)NC(C)(C)C)c3N2)c1 (stereo unspecified)	3%	-6%
CCOC(=O)c1c(C)[nH]c(O)c1C=Nc1ccccc1	9%	8%
CCC1(CC)Cc2ccccc2C(N)=C1C#N	-9%	2%
OC(C#CCCN1CCCCC1)(c1ccccc1)c1ccccc1	4%	5%
CN(C(=O)c1ccco1)c1nc2c(s1)CCCC2	.	-3%
O=C(COC(=O)c1ccc([N+](=O)[O-])s1)NC(=O)NCc1ccccc1	-2%	9%
COc1c(Cl)cc(Cl)cc1/C=N/NC(=O)c1nnn(-c2nonc2N)c1CN1CCC(C)CC1	6%	1%
S=C(NCC1COc2ccccc2O1)Nc1ccc(Br)cc1 (stereo unspecified)	5%	0%
CC(=O)Oc1ccc2oc(C)c(C(=O)N3CCOCC3)c2c1	-3%	2%
CC(C)NC(=O)C1CCN(c2ccc(S(=O)(=O)N3CCOCC3)cc2Cl)CC1	-7%	1%
O=C(CCN1CCOCC1)NNC(=S)NC(=O)c1ccc(Br)cc1	-2%	4%
CC1CC(C)CN(CCOc2ccc(Br)cc2)C1 (stereo unspecified)	-1%	-4%
CCOCC(=O)N1CCN(c2cccc(Cl)c2)CC1	0%	-3%
O=C(Nc1ccccc1)ON=C1CCCC1	5%	5%
COc1cccc(C(=O)CN(C(=O)c2ccc(Cl)c(Cl)c2)N2C(=O)C3CCCCC3C2=O)c1 (stereo unspecified)	0%	-3%
Cc1[nH]c2ccccc2c1N=Nc1ccccc1F	0%	-2%
COCCNC(=O)C(c1ccc(C)cc1)N(C(=O)CCC(=O)Nc1ccccn1)c1cccc(C)c1 (stereo unspecified)	-4%	.
CCn1c(COc2ccccc2)nnc1SCC(=O)CC(=O)Nc1ccccc1OC	-3%	9%
CC(=O)N1CCc2c(sc(NC(=O)CS(=O)(=O)c3ccc(F)cc3)c2C#N)C1	-5%	-7%
COc1ccc(S(=O)(=O)N(C)CC(=O)Nc2ccc(C(N)=O)cc2)cc1OC	-1%	1%
Cc1nc(C(=O)NNC(=O)c2ccc(Cl)cc2)cs1	0%	.
COCCn1cc(C(=O)N2CCC(C)CC2)c2c3ccccc3n(C)c2c1=O	-16%	6%
CN1C(=O)/C(=C/C=C2\SCCN2C)OC1=S	-5%	0%
COC(=O)COc1ccc(S(=O)(=O)N2CCOCC2)cc1C	7%	4%

Taken from the listing (14 entries):
SMILES	N370S GC	TDP1 inh
Cc1csc(SCC(=O)NC2CCCCC2)n1	-1%	2%
Cc1cc([N+](=O)[O-])nn1CC(=O)NCCCn1ccnc1	-2%	0%
COc1ccc(C2NC(=O)c3n[nH]c(C)c32)c(OC)c1 (stereo unspecified)	3%	0%
COc1ccc(CC(=O)N2CCc3ccccc32)cc1	6%	-10%
Cc1ccc(NS(=O)(=O)c2ccc3[nH]c(=O)oc3c2)cc1Cl	.	-5%
CCOC(=O)c1[nH]c(C)c(C(=O)NCCN2CCOCC2)c1C	3%	3%
Nc1ccc2nn(-c3cccc4ccccc34)nc2c1	7%	-1%
Cc1ccc(-c2nc3ccccc3s2)cc1S(=O)(=O)N1CCCC1	17%	-4%
Cc1c(C(=O)N2CCCC2)oc2c1-c1nn(CC(=O)NCCCN3CCCCC3C)cc1CC2 (stereo unspecified)	-7%	6%
CC(C)Nc1nc(N)c(C(=O)C23CC4CC(CC(C4)C2)C3)s1	0%	2%
CCOC(=O)C1=C(C)NC(=O)C(C(N)=O)C12CCCC2 (stereo unspecified)	.	-3%
Cc1cccc(N=C2NC(=O)c3cc([N+](=O)[O-])ccc32)c1	-22%	8%
O=C(NNC(=O)c1ccccc1F)c1ccc(S(=O)(=O)N2CCCCC2)cc1	.	1%
O=C(NCCCc1ccccc1)Nc1cccc(Cl)c1	6%	-4%

Going on with the list.
SMILES	N370S GC	TDP1 inh
O=C(CCCCCl)Nc1c2c(nc3ccccc13)CCC2	-29%	.
O=C(c1ccc(S(=O)(=O)NCc2ccco2)cc1)N1CCN(Cc2ccc3c(c2)OCO3)CC1	-5%	-1%
COc1ccccc1NS(=O)(=O)c1cc(C(=O)NCC(c2ccc(F)cc2)N2CCOCC2)ccc1C (stereo unspecified)	?	2%
CCCCNC1=NCCS1	7%	-1%
CCOC(=O)N1CCN(C(=O)CCNS(=O)(=O)c2cc(Br)cnc2N)CC1	-1%	2%
CC(c1ccccc1)N(CC(=O)NC1CCCCC1)S(=O)(=O)c1cccc(C(F)(F)F)c1 (stereo unspecified)	8%	-1%
N#C/C(=C\Nc1ccc(F)c(Cl)c1)C(=O)C1CC1	-11%	.
COc1ccccc1-c1nnc(NC(=O)c2ccccc2F)o1	0%	1%
CNCCCC1c2ccccc2C=Cc2ccccc21	-10%	3%

High-throughput results as filed in PubChem.

These rows are one share of the data; most or all hits stand in other tables.
